HCMV UL50-53 inh: cytomegalovirus nuclear egress complex inhibition; HTRF UL50-UL53 interaction, normalized percent inhibition; inhibition, % (test concentration not listed); actives 0.15% (n = 190,000);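 active = both replicates at 50% or more, plus weaker picks with an unusually low signal ratio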;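 note: stock transfer was 100 nL into about 20 µL; 0% = negative control wells and 100% = wells with untagged competitor protein; inactives centre near -12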
Sa growth inh: inhibitors of Staphylococcus aureus growth at 42 °C. S. aureus RN4220 growth, OD600, 20 h; active compounds read low. relative growth, % (test concentration not listed). actives 0.53% (n = 170,000). AID 720641;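 active = growth at 42 °C up to 50% and 20 or more points under that at 30 °C, or under 10% at both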;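 note: 300 nL library stock went into each well; scaled to the means of positive and negative controls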
GIV-Gai inh: inhibitors of GIV GBA-motif binding to rat Galpha-i3; P08753; Galpha-i3/FITC-GIV peptide fluorescence polarization, 90 min; active compounds read low; scaled: aluminum fluoride 0%, vehicle 100%; percent of control (FP), % (no concentration beside the values); actives 0.42% (n = 210,000); AID 1224905;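 active = replicate mean at 85% of control or lower, very high polarization wells dropped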;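 note: wells of about 15 µL received 100 nL stock; the first replicate is given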
Target sequence (P08753 whole entry, looked up): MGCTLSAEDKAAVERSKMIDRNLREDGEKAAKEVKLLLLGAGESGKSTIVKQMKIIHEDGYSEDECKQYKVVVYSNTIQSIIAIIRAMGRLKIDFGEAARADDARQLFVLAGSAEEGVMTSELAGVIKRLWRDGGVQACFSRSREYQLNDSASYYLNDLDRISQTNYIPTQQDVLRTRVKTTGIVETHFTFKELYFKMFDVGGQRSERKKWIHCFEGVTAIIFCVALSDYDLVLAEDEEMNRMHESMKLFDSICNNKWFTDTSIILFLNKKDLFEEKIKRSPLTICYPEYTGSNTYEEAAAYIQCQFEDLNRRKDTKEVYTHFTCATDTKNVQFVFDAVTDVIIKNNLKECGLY
Sa growth inh second temp: second read-out of Sa growth inh, no call of its own (marks repeat the call); relative growth, %; measured here: growth at 30 °C;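 optical density after 20 h as mean of two plates; 100% = untreated growth and lower means inhibition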
* = called active by the depositor; . = no result given; & = joins results of further samples.

SMILES	HCMV UL50-53 inh	Sa growth inh	Sa growth inh second temp	GIV-Gai inh
CCOc1ccc(C(C)C)cc1S(=O)(=O)Nc1cccc(-c2ccc(N3CCCCC3)nn2)c1	-23.8	.	.	101.1
NC(=O)C1CCN(C(=O)c2cccc(NC(=O)c3nsc4ccccc34)c2)CC1	.	106.2	84.3	108.2
O=C(O)C1C2C=CC(O2)C1C(=O)N1CCN(c2ccccc2)CC1 (stereo unspecified)	12.8	92.5	102.1	101.0
Cc1ccccc1Nc1nc(CCl)cs1	-10.6	96.6	87.6	.
CC1CC(=O)c2cnc(NCCCN3CCOCC3)nc2C1 (stereo unspecified)	-26.9	.	.	101.5
CCOC(=O)c1[nH]c(CSc2nnc(-c3ccco3)n2-c2ccccc2)c(C(=O)OCC)c1C	1.5	109.0	88.8	.
COc1ccc(OC)c(C2(O)CSC(=Nc3cccnc3)N2C2CC2)c1 (stereo unspecified)	-13.7	78.7	98.4	.
Cc1ccc(Cn2c(SCc3ccc(C(=O)NC4CCCC4)cc3)nc3ccncc32)cc1	4.5	105.5	94.5	109.5
COC(=O)c1sc2cccc(F)c2c1S(=O)(=O)Nc1ccc(N(C)C)cc1	.	78.2	87.6	98.8
COc1ccc(NC(=O)CCSc2nc(-c3ccc(OC)cc3)cc(C(F)(F)F)n2)cc1	-39.1	91.2	85.4	101.3
Cc1cc(N2CCCCC2)nc2ccc(NC(=O)CCC(=O)N3CCC(C)CC3)cc12	-31.8&-18.8	78.9	78.2	101.0&98.5
O=C(Nc1ccc(Cl)cc1)n1nc(C(F)(F)F)c2cnccc21	-8.9	120.7	66.7	101.4
CCCc1cc(C(=O)N2CCCC2c2ccc(Cl)cc2)no1 (stereo unspecified)	-29.7	.	.	104.2
Cn1c(=O)c2c(nc(SCC(=O)NC3CCCCC3)n2C)n(C)c1=O	-9.6	99.5	84.4	.
Cc1nn(CC(=O)Nc2ccc3c(c2)oc2ccccc23)c(=O)c2ccccc12	2.1	87.1	114.7	93.8
Cc1cc(C(C)(C)CC(C)(C)C)ccc1OCCOCC[N+](C)(C)Cc1ccccc1	-17.2&-21.1	0.9*	-0.5*	.
O=C(c1ccccc1)c1ccc(OCC(O)CN2C(=O)c3ccccc3C2=O)cc1 (stereo unspecified)	-29.8	91.9	70.4	.
COc1cccc(C2C(=O)c3ccccc3C2=O)c1	-2.7	101.5	92.4	110.3
CCOc1ccc(NC(=O)Cn2c(=O)n(-c3ccccc3)c(=O)c3ccc(C(=O)NCc4ccc5c(c4)OCO5)cc32)cc1	-2.2	96.6	106.9	97.7
CCN1CCCC1CNC(=O)Cn1ncc2c3ccccc3n(Cc3cc(C)ccc3C)c2c1=O (stereo unspecified)	10.8	88.5	75.1	102.5
CC1CN(C(=O)CSc2ncc(C(F)(F)F)cc2Cl)CC(C)O1 (stereo unspecified)	-9.4	99.0	91.5	.
Cc1nc2ccccc2n(CCC(=O)NCCc2c[nH]c3ccc(Cl)cc23)c1=O	-26.4	.	.	107.5
O=C(CCC(=O)c1cccs1)NCc1ccc(Cl)cc1	-23.1	119.2	83.3	.
Cc1ccc(Nc2c(-c3ccco3)nc3ccc(C)cn23)cc1	-7.4	106.8	87.7	110.8
COC(=O)c1ccc(NC(=O)CNC(=O)C2CCCCC2)c(C)c1	-22.8	85.5	84.6	101.2
COc1ccc(CC(=O)NN2C(=O)CSCC2=O)cc1OC	-1.4	104.7	92.6	108.9
O=C(c1cccs1)N1CCC(c2ccccc2)C1 (stereo unspecified)	-5.8	95.8	73.0	100.7
O=C(c1ccccc1)N1CCN(C(=O)c2nn3c(C(F)(F)F)cc(-c4cccs4)nc3c2Br)CC1	-36.3	.	.	106.8
COc1ccc(C(=O)NCCc2cccs2)cc1	3.3	103.3	64.4	92.9
CCN(CC)c1ccc(O)c(/C=N/N2C(=O)/C(=C/c3ccco3)N=C2c2ccccc2)c1	-13.5	94.9	85.5	.
CN(C)c1ccc(NC(=O)c2ccc(Br)cc2)c(C(=O)O)c1	-38.7	.	.	98.5
O=C(Nc1ccc2c(c1)OCO2)N1CCN(c2ccc(-c3noc(C4CC4)n3)cc2)CC1	-2.5	.	.	106.4
O=C(Nc1ccc2c(c1)oc1ccccc12)c1cccs1	-18.6	118.1	93.7	109.1
CC(C)CN1CCOC(CNC(=O)Nc2ccc(Cl)c(Cl)c2)C1 (stereo unspecified)	-18.1	77.6	78.5	.
Cc1cc(S(=O)(=O)Nc2cc3c(cc2N2CCOCC2)n(C)c(=O)n3C)ccc1F	-10.0&-33.6	96.3	84.7	101.1&104.1
CCc1cccc2c(C#N)cn(CC(=O)NC3CCCC3)c12	-11.5	115.5	78.2	.
Cc1ccccc1NC(=O)Nc1nnc(N2CCCC2)s1	-25.1	77.0	79.1	107.6
CCn1c(C(=O)O)c(CC(=O)N2CCN(c3cccc(Cl)c3)CC2)c2ccccc21	-1.9	.	.	103.4
COc1cc(NC(=O)c2cc(=O)n3c(nc4ccccc43)s2)cc(OC)c1	-29.5	119.6	86.8	99.6
O=C(Nc1nn2cnnc2s1)C12CC3CC(CC(O)(C3)C1)C2	-1.3	94.7	100.9	.
Cn1cnc(S(=O)(=O)N2CCC(C(=O)N3CCN(c4ccccc4F)CC3)CC2)c1	.	96.3	90.9	97.9
COCCNC(=O)c1sc2c(cnc3c(F)cccc32)c1-c1ccccc1	-26.3	.	.	99.7
COc1cc(N2CCn3c(nc4ccccc43)C2)ccc1NS(C)(=O)=O	7.4	.	.	96.8
COc1cc(NC(=O)CSc2nc(-c3ccc(C)cc3)nc3c2Cc2ccccc2O3)cc(OC)c1	-2.7	105.1	83.0	105.7
CC(CNC(=O)c1ccc(-n2nnc3cccnc32)cc1)c1ccccc1 (stereo unspecified)	-4.2	.	.	124.6
O=C(NCCc1csc(-c2ccc(Cl)cc2)n1)c1ccco1	.	63.5	75.1	101.6
O=C(NCC1COc2ccccc2O1)c1ccc(NC(=O)c2ccc(Br)o2)cc1 (stereo unspecified)	-1.4	114.8	94.7	104.5
Cc1nnsc1C(=O)Nc1nc(C)c(C(=O)OCC(C)C)s1	-1.7	.	.	97.9
O=C(O)c1n[nH]nc1-c1ccccc1	-3.8	90.9	92.7	102.5
Cn1nc(C(=O)NCc2ccc(Cl)cc2)c2c1-c1ccccc1SC2	-10.1	128.2	106.4	105.4

(list continues)
SMILES	HCMV UL50-53 inh	Sa growth inh	Sa growth inh second temp	GIV-Gai inh
COC(=O)c1ccc(CSc2ccccc2N)o1	.	98.7	84.5	98.6
Cc1ccc2c(c1)c1c3n2CCN(C(=O)c2ccco2)C3CCC1 (stereo unspecified)	2.9	93.0	91.5	105.0
CC(C)OC(=O)c1ccc(NC(=O)c2ccc(Cn3cc(Cl)cn3)cc2)cc1	.	120.2	92.0	102.4
O=C(N=c1scc(-c2ccccc2)n1-c1ccccc1)c1ccccc1	0.9	83.8	92.5	.
COc1ccc(NC(=O)c2ccco2)cc1NC(=O)COc1ccc(Cl)cc1C	-39.7	96.3	92.3	94.5
CCn1c(N)c(C(=O)NCC2CCCO2)sc1=S (stereo unspecified)	-78.4	83.2	73.8	102.8
CC1=NC(C(F)(F)F)(C(F)(F)F)C2=C(CC(C)(C)CC2=O)N1Cc1ccco1	0.1	101.2	99.4	98.5
COC(=O)CSC(=S)N1CCCC(C)C1 (stereo unspecified)	-4.1	92.8	91.2	.
CCCn1c(N)c(C(=O)CSc2nc3cc(Cl)ccc3c(=O)n2C2CCCC2)c(=O)[nH]c1=O	-3.9	88.3	90.0	.
CC1CCCN(C(=O)COC(=O)c2ccc(Cl)nc2)C1 (stereo unspecified)	-31.1	103.1	89.8	.
COc1ccc(-c2ccnc3c(-c4ccc(F)cc4)c(C)nn23)cc1OC	-32.7&-33.8	80.9	91.8	106.8&102.8
CC(=O)N1CCC(C(=O)Nc2nc(-c3ccccc3)ns2)CC1	2.2	88.3	93.8	99.7
CC(=O)Nc1ccc(OCc2ncc(C(F)(F)F)cc2Cl)cc1	0.1	98.5	95.0	98.1
O=C(Cc1c(O)c2ccccc2oc1=O)c1ccccc1O	-4.3	97.6	95.7	95.0
CC1CC(C)CN(c2cnn(-c3ccccc3)c(=O)c2Cl)C1 (stereo unspecified)	-33.9	107.3	87.6	.
CN(C)S(=O)(=O)c1cccc2nsnc12	-74.5&-95.3	84.6&98.4	91.7&82.4	103.5
CCN(CC)c1ccc(C(=O)Nn2c(-c3cc(OC)cc(OC)c3)nc3ccccc3c2=O)cc1	1.9	.	.	101.4
CC1CCCC(C)N1CC(O)COc1ccc(Cl)cc1 (stereo unspecified)	3.7	109.1	101.5	.
COc1ccccc1CNc1ccc(CNc2ncn[nH]2)cc1	-18.9	99.1	89.3	98.4
CCCNC(=O)CN1C(=O)CSc2ccc(S(=O)(=O)N3CCC(C)CC3)cc21	-25.6	109.7	88.8	103.6
CN(Cc1ccccc1)c1ncnc2onc(-c3ccc(F)cc3)c12	.	86.3	86.5	105.4
CCc1ccc(NC(=O)CCS(=O)(=O)c2cccc3nonc23)cc1	.	94.4	79.9	98.8
CC(=O)Nc1ccc(CN2CCCCC2)cc1	-4.2	98.2	99.3	101.4
CCOC(=O)c1cc(-c2ccc(OC)cc2)n(CCC(=O)NC2CCCCC2)c1C	.	100.1	91.8	98.1
C=CCOc1ccc(/C=C2\C(=O)N(c3ccc(C(=O)OC(C)C)cc3)N=C2C)cc1OC	-19.0	.	.	99.7
Cn1c(CNC(=O)CSc2n[nH]c(-c3ccccc3Cl)n2)nc2ccccc21	.	101.5	87.9	103.9
Cc1cccc(Oc2ccc(NC(=O)CCC(=O)OCC(=O)c3ccc(Br)cc3)cc2)c1C	-42.8	103.9	89.5	111.1
COc1cc(/C=C/C(=O)OC2CCCCC2=O)cc(OC)c1OC (stereo unspecified)	-11.0	94.5	95.6	.
CC(C)NC(=O)OCc1noc(-c2ccc(Cl)cc2)n1	-1.6	107.4	92.7	103.9
N#CCc1nc(-c2ccc(Cl)c(Cl)c2)cs1	-20.7	95.6	72.1	134.3
CC1=CC(=C(C#N)C#N)C=C(C)N1c1cccc(F)c1	21.1	94.3	101.0	.
N#Cc1ccc(CSc2nnc(CNc3ccccc3)o2)cc1	-10.5	101.3	87.7	103.8
COc1ccc(C(=O)CSc2nnc(CCC(=O)O)c(=O)[nH]2)cc1OC	-9.8	91.4	90.6	.
COc1ccccc1CNC(=O)CSc1nc(=O)[nH]c2c1CCC2	.	116.8	84.1	94.8
O=C(c1ccc(CSc2ncn[nH]2)cc1)N1CCN(S(=O)(=O)c2ccc3c(c2)CCC3)CC1	-22.2	93.5	85.7	.
CCn1cc(C(=O)O)c(=O)c2cc(F)c(N3CCN(C(=O)c4ccc(F)cc4)CC3)cc21	.	16.9	12.4	107.9
O=C(C1CC1)N1CCN(c2nc3ccc(F)cc3s2)CC1	.	103.5	99.9	104.1
COc1ccc(-c2nc3n(n2)C(c2ccccc2F)C(C(=O)Nc2cccnc2)=C(C)N3)cc1OC (stereo unspecified)	0.0	108.1	89.4	99.4
Cc1c(Cl)cccc1NC(=O)Cn1c(=O)cc(C)c2c(C)nn(-c3cccc(F)c3)c21	.	84.6	92.4	106.6
CCOC(=O)N1CCc2c(sc3c2c(=O)n(Cc2ccccc2)c(=O)n3Cc2ccc(C)cc2)C1	-25.6	95.9	96.2	105.0
CCCCN(C)C(=O)c1cc2c(s1)-c1ccccc1S(=O)(=O)C2	0.2	101.2	90.2	101.4
O=C(CSc1nc2ccccc2c(=O)n1C1CC1)NCc1ccccc1	4.8	98.1	97.2	100.4
Cc1ccc(OCC(=O)NC2CCS(=O)(=O)C2)cc1 (stereo unspecified)	.	81.0	95.8	100.6
Cc1cc2nc(C(F)(F)F)cc(C)n2n1	-0.8	89.6	82.5	103.5
Cc1cc(S(=O)(=O)/N=C(\N)c2ccc(C(N)=O)cc2)cc(C)c1F	-11.5	90.7	83.4	98.8

Of the compounds above, eleven contain a furan ring, fused or not:
SMILES	HCMV UL50-53 inh	Sa growth inh	Sa growth inh second temp	GIV-Gai inh
CCOC(=O)c1[nH]c(CSc2nnc(-c3ccco3)n2-c2ccccc2)c(C(=O)OCC)c1C	1.5	109.0	88.8	.
Cc1nn(CC(=O)Nc2ccc3c(c2)oc2ccccc23)c(=O)c2ccccc12	2.1	87.1	114.7	93.8
Cc1ccc(Nc2c(-c3ccco3)nc3ccc(C)cn23)cc1	-7.4	106.8	87.7	110.8
CCN(CC)c1ccc(O)c(/C=N/N2C(=O)/C(=C/c3ccco3)N=C2c2ccccc2)c1	-13.5	94.9	85.5	.
O=C(Nc1ccc2c(c1)oc1ccccc12)c1cccs1	-18.6	118.1	93.7	109.1
O=C(NCCc1csc(-c2ccc(Cl)cc2)n1)c1ccco1	.	63.5	75.1	101.6
O=C(NCC1COc2ccccc2O1)c1ccc(NC(=O)c2ccc(Br)o2)cc1 (stereo unspecified)	-1.4	114.8	94.7	104.5
COC(=O)c1ccc(CSc2ccccc2N)o1	.	98.7	84.5	98.6
Cc1ccc2c(c1)c1c3n2CCN(C(=O)c2ccco2)C3CCC1 (stereo unspecified)	2.9	93.0	91.5	105.0
COc1ccc(NC(=O)c2ccco2)cc1NC(=O)COc1ccc(Cl)cc1C	-39.7	96.3	92.3	94.5
CC1=NC(C(F)(F)F)(C(F)(F)F)C2=C(CC(C)(C)CC2=O)N1Cc1ccco1	0.1	101.2	99.4	98.5

High-throughput results deposited in PubChem BioAssay by ICCB-Longwood Screening Facility, Harvard Medical School.
